Rango release inh = prevents RanGTP from dissociating the Rango-importin beta complex; O95149+P62826; Biochemical FRET Rango-importin beta, RanGTP-induced dissociation; Potency, µM (series often up to 46.1 µM), inactives show at the highest dose activity change, negative = inhibition; actives 0.071% (n = 340,000); active means falling FRET ratio curve, often poorly fitted, with flat reads before Ran was added; inconclusive means other falling curves, or compound fluorescence or quenching; inactive means flat or rising ratio curve;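 also: potency is read from the fitted curve at half-maximal effect; % of control where 0% means no effect; nearly all actives have a fitted effect of over 45% in size; -100% = wells without RanGTP and RCC1; the record marks most hits as doubtful in a second field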
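Recombinant Rango FRET biosensor (EYFP–snurportin 1 IBB–cerulean CFP10) at 0.1 uM premixed with 0.25 uM importin beta in PBS, 1 mM DTT, 0.02% Tween-20, 0.1% BSA. Compound added 5 min; RanGTP-RCC1 (0.6 uM Ran, 2 mM GTP, 0.2 uM RCC1) then triggers release, read at 45 min.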
GLA inh pH 4.5 = inhibitors of human alpha-galactosidase A at pH 4.5. 230,000 tested, under 10 active. activity change, negative = inhibition, % at 105 µM. purified enzyme, 4-MU-alpha-Gal fluorescence, pH 4.5; inconclusive = small, poorly fitted or top-dose-only inhibition, or a rising curve; inactive = flat fitted curve, though single readings scatter; no compound was filed as active;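 also: 0% = full activity with enzyme and -100% = basal without enzyme; dose as in the result columns while the protocol names 77 µM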
Target sequence (P06280 whole entry, looked up): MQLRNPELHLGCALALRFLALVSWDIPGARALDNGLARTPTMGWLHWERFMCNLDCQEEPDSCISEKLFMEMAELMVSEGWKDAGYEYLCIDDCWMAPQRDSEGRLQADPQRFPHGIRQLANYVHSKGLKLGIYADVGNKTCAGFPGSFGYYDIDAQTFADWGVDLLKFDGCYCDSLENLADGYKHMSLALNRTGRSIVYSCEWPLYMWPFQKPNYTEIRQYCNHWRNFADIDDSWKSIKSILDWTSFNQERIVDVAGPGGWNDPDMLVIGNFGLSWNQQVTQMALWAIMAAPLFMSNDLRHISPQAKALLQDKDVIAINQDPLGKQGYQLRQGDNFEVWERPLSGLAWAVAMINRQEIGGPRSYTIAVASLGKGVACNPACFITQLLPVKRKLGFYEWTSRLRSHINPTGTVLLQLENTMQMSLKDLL
Rango-impB inh = inhibitors of Rango-importin beta complex formation. Rango CFP/YFP FRET sensor + importin beta, 45 min. Potency, µM (highest dose often 92.2 µM), without a hit: top-dose inhibition of complex formation. actives 0.031% (n = 340,000); active = rising FRET ratio curve, often small or poorly fitted; inconclusive = mostly compound fluorescence or quenching in the first reads; inactive = flat curves in all reads;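 also: potency is read from the fitted curve at half-maximal effect; 0% = DMSO wells and 100% = buffer wells lacking importin beta; nearly all actives have a fitted effect of over 15% in size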
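Inhibition scored from the CFP 486 nm/YFP 530 nm FRET ratio 45 min after adding 0.125 microM importin beta to 50 nM Rango biosensor preincubated 5 min with compound (room temperature, PBS with DTT, Tween-20, BSA). No-importin wells as positive control.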
miR-21 reporter = miR-21 reporter, rising signal | HeLa miR-21 FLuc reporter, luciferase, 48 h | Potency, µM (doses to about 38.3 µM), inactives show top-dose reporter change, positive = more light | AID 2288 | 340,000 tested, under 10 active; active = well fitted rising curve with a large enough effect; inconclusive = small, poorly fitted or top-dose-only effect; inactive = no such curve, though single readings can be large or run the other way;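 also: % of control where 0% means no effect; miR-21 action dims this reporter so a rising signal means less miR-21 action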
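Using DMEM plus 10% FBS, HeLa miR-21-FLuc cells are incubated with test compounds (final up to about 40uM) for 48 hours; firefly luciferase signal is then imaged following reagent-mediated lysis.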
Active calls of the source: *; ? = inconclusive; nt = not tested or not shown; & = joins results of further samples. The list is partial; count on the stated rates, not on these rows.

SMILES | Rango release inh | GLA inh pH 4.5 | Rango-impB inh | miR-21 reporter
COc1ccc(CC(=O)Nc2ccccc2C(=O)N2CCOCC2)cc1 | -12% | -4 | 0.5% | -8%
C#CCOCCOCCOCCNc1nc(N2CCN(C(=O)CCCCCCCCCCNC(=O)[C@H](CCCCN)n3cc(C[C@@H](C)CC)nn3)CC2)nc(N2CCN(C(=O)CCCCCCCCCCNC(=O)[C@H](CCCN=C(N)N)n3cc(C[C@@H](C)CC)nn3)CC2)n1 | ? | nt | 65µM* | nt
O=C(Nc1ccc(Cl)cc1)N(Cc1cccnc1)Cc1ccco1 | -3% | -2 | 1.3% | -14%
Cc1nnc(C)n1/N=C/c1cc2ccccc2nc1Cl | -8% | -3 | -1.4% | 9%
O=C(CCc1ccccc1)NCC(=O)N/N=C/c1ccc2c(c1)OCO2 | -20% | -2 | 5.4% | -13%
O=C(Nc1cc(Cl)cc(Cl)c1)C(NCCCO)c1ccccc1 (stereo not given) | nt | -24 | nt | 5%
CN(C)S(=O)(=O)c1cccc(NC(=O)Cc2ccsc2)c1 | -9% | nt | 2.0% | 8%
Cc1ccc(C(=O)Nc2nc(C(C)(C)C)cs2)s1 | 7% | 2 | 0.4% | -6%
O=C(CSc1nc(N2CCOCC2)nc(N2CCOCC2)n1)Nc1ccc(Cl)cc1Cl | -6% | nt | -0.7% | -1%
Cc1nc(CS(=O)(=O)c2ccc(Cl)cc2)sc1C(=O)O | 6% | 0 | 0.0% | -1%
CC(C)(C)N(CC(=O)NC1CCCCC1)C(=O)CS(=O)CC(=O)Nc1ccc(F)cc1 (stereo not given) | -9% | nt | -2.2% | 0%
CC1(C)CNC(=O)c2sc(NC(=O)CN3CCOCC3)nc2C1 | -16% | -5 | -0.3% | -4%
COc1ccc(NS(=O)(=O)c2cc(NC(=O)/C=C/c3cc(OC)ccc3OC)ccc2N2CCCCC2)cc1 | ? | -5 | ? | -13%
CCCCC1=CC2=C(c3ccco3)C(=O)C(C)(OC(=O)c3ccc(OC)cc3)C(=O)C2=CN1Cc1ccco1 (stereo not given) | ? | 12&-12 | ? | 5%
COCCCNCCCOc1ccc(Cl)cc1Br | -7% | 6 | -3.0% | -15%
CCOC(=O)C1(Cc2ccccc2C)CCCN(Cc2cn(C)nc2C)C1 (stereo not given) | -1% | 0 | 2.1% | 1%
COc1ccc(C)cc1NC(=O)CN1C(=O)c2ccccc2S1(=O)=O | -1% | -5 | 0.7% | 3%
O=C(NCc1cccc(F)c1)c1ccc2nc(N3CCOCC3)sc2c1 | -3% | nt | 0.0% | -12%
O=C(Nc1ccccc1)NC1CS(=O)(=O)CC1O (stereo not given) | -10% | 1 | -4.2% | -3%
O=[N+]([O-])c1ccccc1S(=O)(=O)Nc1cccc2cccnc12 | 7% | nt | -2.6% | ?

19 compounds out of the list, arranged by molar mass, low to high:
SMILES | Rango release inh | GLA inh pH 4.5 | Rango-impB inh | miR-21 reporter
O=C(Nc1ccccc1)NC1CS(=O)(=O)CC1O (stereo not given) | -10% | 1 | -4.2% | -3%
Cc1ccc(C(=O)Nc2nc(C(C)(C)C)cs2)s1 | 7% | 2 | 0.4% | -6%
Cc1nnc(C)n1/N=C/c1cc2ccccc2nc1Cl | -8% | -3 | -1.4% | 9%
CN(C)S(=O)(=O)c1cccc(NC(=O)Cc2ccsc2)c1 | -9% | nt | 2.0% | 8%
O=[N+]([O-])c1ccccc1S(=O)(=O)Nc1cccc2cccnc12 | 7% | nt | -2.6% | ?
Cc1nc(CS(=O)(=O)c2ccc(Cl)cc2)sc1C(=O)O | 6% | 0 | 0.0% | -1%
COCCCNCCCOc1ccc(Cl)cc1Br | -7% | 6 | -3.0% | -15%
CC1(C)CNC(=O)c2sc(NC(=O)CN3CCOCC3)nc2C1 | -16% | -5 | -0.3% | -4%
O=C(Nc1ccc(Cl)cc1)N(Cc1cccnc1)Cc1ccco1 | -3% | -2 | 1.3% | -14%
O=C(CCc1ccccc1)NCC(=O)N/N=C/c1ccc2c(c1)OCO2 | -20% | -2 | 5.4% | -13%
COc1ccc(CC(=O)Nc2ccccc2C(=O)N2CCOCC2)cc1 | -12% | -4 | 0.5% | -8%
COc1ccc(C)cc1NC(=O)CN1C(=O)c2ccccc2S1(=O)=O | -1% | -5 | 0.7% | 3%
CCOC(=O)C1(Cc2ccccc2C)CCCN(Cc2cn(C)nc2C)C1 (stereo not given) | -1% | 0 | 2.1% | 1%
O=C(NCc1cccc(F)c1)c1ccc2nc(N3CCOCC3)sc2c1 | -3% | nt | 0.0% | -12%
CC(C)(C)N(CC(=O)NC1CCCCC1)C(=O)CS(=O)CC(=O)Nc1ccc(F)cc1 (stereo not given) | -9% | nt | -2.2% | 0%
O=C(CSc1nc(N2CCOCC2)nc(N2CCOCC2)n1)Nc1ccc(Cl)cc1Cl | -6% | nt | -0.7% | -1%
CCCCC1=CC2=C(c3ccco3)C(=O)C(C)(OC(=O)c3ccc(OC)cc3)C(=O)C2=CN1Cc1ccco1 (stereo not given) | ? | 12&-12 | ? | 5%
COc1ccc(NS(=O)(=O)c2cc(NC(=O)/C=C/c3cc(OC)ccc3OC)ccc2N2CCCCC2)cc1 | ? | -5 | ? | -13%
C#CCOCCOCCOCCNc1nc(N2CCN(C(=O)CCCCCCCCCCNC(=O)[C@H](CCCCN)n3cc(C[C@@H](C)CC)nn3)CC2)nc(N2CCN(C(=O)CCCCCCCCCCNC(=O)[C@H](CCCN=C(N)N)n3cc(C[C@@H](C)CC)nn3)CC2)n1 | ? | nt | 65µM* | nt

New compounds follow
SMILES | Rango release inh | GLA inh pH 4.5 | Rango-impB inh | miR-21 reporter
Cn1ncc(Cl)c1C(=O)N1CCN(c2ccc(Cl)c(Cl)c2)CC1 | 0% | nt | -0.1% | 9%
COc1ccc(/C=C2\C(=O)NC(=O)c3ccccc32)cc1OC | -7% | nt | -2.3% | nt
CCCCN1C(=O)CCC(C(=O)O)C1c1ccccc1 (stereo not given) | 0% | 6 | 3.1% | -4%
COc1cc2c(OC(C)=O)c3c(c(-c4ccc5c(c4)OCO5)c2cc1OC)C(=O)OC3 | 16µM* | -6 | ? | 22%
CN1CCN(NC(=O)Nc2cccc(F)c2)CC1 | -1% | nt | -5.2% | -25%
Cc1ccc([N+](=O)[O-])c(C(=O)N/N=C/c2cccnc2)c1 | -2% | -6 | 2.0% | 0%
CN(C)C(=O)c1cc(F)ccc1Sc1cc(Cl)ccc1Cl | 1% | 3 | -2.7% | -16%
O=C(O)Cc1ccc(Nc2cnn(C34CC5CC(CC(CC(=O)O)(C5)C3)C4)c(=O)c2Cl)cc1 | -18% | -6 | 0.3% | 0%
CC(C)c1cc(C(=O)NCCc2ccccc2)no1 | 7% | -1 | 0.0% | -62%
Cc1ccc(C(=O)NNC(=O)Cc2nc3nc(C)cc(C)n3n2)cc1 | ? | nt | ? | -1%
O=C1CC(N2CCN(S(=O)(=O)c3ccccc3)CC2)C(=O)N1c1ccccc1 (stereo not given) | -10% | -2 | 0.0% | 4%
Cc1oc(-c2cc(F)ccc2F)nc1CN1CCC(C(=O)N2CCOCC2)CC1 | 4% | nt | -1.9% | 0%
CC1c2cccn2CCN1S(=O)(=O)c1ccccc1 (stereo not given) | -24% | nt | -1.4% | nt
COC(=O)[C@H]1C2CCC(C(=O)OC)(CC2)[C@H]1C(=O)OC | 18% | 2 | 1.1% | -3%
CCN(CC(=O)NC1CC1)S(=O)(=O)c1ccccc1 | 19% | nt | 2.2% | 1%
COc1cc2c(cc1OC)CN(C(=O)c1ccc(-c3ccccc3)cc1)CC2 | 15% | nt | -2.1% | 0%
CCOC(=O)c1c(-c2ccc(C)cc2)csc1/N=C/N(C)C | -7% | -7 | 0.3% | 3%
CCOC(=O)CNC(=O)COc1coc(CN2CCN(c3ccccc3)CC2)cc1=O | -3% | nt | 0.1% | 5%
CC1CCc2c(C(=O)NCc3cccnc3)csc2C1 (stereo not given) | -2% | -14 | -1.1% | -7%
CCOC(=O)c1ccc(-n2c(N)c(C(=O)NCC3CCCO3)sc2=S)cc1 (stereo not given) | -8% | -2 | -6.5% | 1%
CCOC(=O)CSc1nnc(CNC(=O)c2ccc([N+](=O)[O-])cc2)n1C | -3% | 6 | -0.5% | 1%
CC(C)Cc1nnc(NC(=O)C2CSC3(C)CCC(=O)N23)s1 (stereo not given) | -1% | nt | -1.4% | nt
COC(=O)[C@@H](NC(=O)Nc1ccc(S(N)(=O)=O)cc1)C(C)C | -16% | 7 | -1.1% | 0%
CCCCc1ccc(NC(=O)CN2C(=O)C3CCCCC3C2=O)cc1 (stereo not given) | 18% | nt | 15% | nt
C=CCNC(=S)NNC(=O)C(CCC(C)C)CC(C)(C)O (stereo not given) | 7% | 7 | -2.5% | 0%
Cc1cc(-n2c(C)cc(C(=O)CN3C(=O)NC4(CCCCC4)C3=O)c2C)no1 | -3% | -4 | -0.8% | -16%
CCc1nc2ccccc2c(=O)n1NCCc1ccccc1 | -12% | 3 | -4.5% | -21%
Cc1ccc(CNc2oc(C)nc2C#N)cc1 | 1% | 0 | 1.5% | -15%
COc1ccc2oc(C(=O)NCCC(C)C)c(C)c2c1 | 13% | -5 | 1.0% | -60%
CC(C)CC1(C(=O)NCc2cc(F)cc(C(F)(F)F)c2)C=CCN1C(=O)c1ccccc1 (stereo not given) | 2% | -9 | -0.2% | -2%
Cc1cccnc1NC(=O)c1ccc(OCc2c(C)noc2C)cc1 | -3% | nt | 2.5% | -33%
CCCCn1c(N)c(N(CC)C(=O)c2cc(S(=O)(=O)N3CCN(CC)CC3)ccc2Cl)c(=O)[nH]c1=O | 0% | nt | -1.1% | -3%
O=C(Nc1cccnc1Cl)c1cc(-c2ccccc2O)on1 | 8% | nt | -3.6% | -78%
Brc1ccc(-c2csc(/N=C/N3CCOCC3)n2)cc1 | 1% | 1 | -3.5% | -16%
O=C(N[C@@H](Cc1ccccc1)C(=O)OCc1ccccc1)c1nc[nH]c1C(=O)NC1CCNCC1 | -21% | nt | -6.7% | nt
CCOCCCNC(=S)N1CCCN(c2nc3cc(C)cc(C)c3cc2C#N)CC1 | ? | -3 | ? | 0%
CC1(c2nnc(-c3cccc(Cl)c3)o2)CC(c2ccc(Br)cc2)=NO1 (stereo not given) | 0% | nt | -4.4% | nt
Cc1ccc(CSc2nnc(CS(=O)Cc3ccc(Cl)cc3Cl)n2C)cc1 (stereo not given) | -19% | -3 | 4.1% | 1%
O=C1CC(N2CCN(c3ccc(Cl)cc3)CC2)C(=O)N1c1ccc(F)cc1 (stereo not given) | -11% | nt | -4.9% | 1%
COc1cccc(CNC(=O)C2CCN(S(=O)(=O)c3ccc(Br)s3)CC2)c1 | -3% | nt | 0.4% | 4%
COc1ccc(OC)c(C2CC(=O)Nc3c2c(=O)[nH]c2ncnn32)c1 (stereo not given) | 3% | 4 | -0.5% | -1%&-22%
O=C1OC(c2ccc(O)cc2)(c2ccc(O)cc2)c2ccccc21 | 3% | 0&-8 | -0.9% | 3%
O=C1C2C(C(=O)N1c1ccccc1)N1CCCN1C2c1ccccc1 (stereo not given) | 6% | 3 | 0.3% | -1%
OCCNCCCOc1ccc(Cl)cc1Br | 9% | 4 | 0.3% | -45%
O=C(NCc1ccc2c(c1)OCO2)c1ccccc1Cl | -19% | nt | 0.8% | nt
CC(C)CCNC(=O)NC(=O)COc1c(F)c(F)cc(F)c1F | 1% | 4 | -1.1% | -20%
COc1ccc(/C=C(\NC(=O)c2cccs2)C(=O)Nc2cccc3ccccc23)cc1OC | 2% | -4 | 0.2% | -1%
COc1ccc(C2C(C(C)=O)=C(O)C(=O)N2CCc2ccccc2)c(OC)c1 (stereo not given) | 2% | 1 | 1.9% | -6%
CC(CCc1ccccc1)NC(=O)CN1CCc2ccccc2C1 (stereo not given) | 3% | -5 | 3.2% | -3%
Fc1cccc2sc(Nc3nc4cc5c(cc4s3)OCO5)nc12 | 4% | -6 | -0.3% | -67%

High-throughput results from PubChem BioAssay.
